Ecoli growth: inhibitors of Escherichia coli growth | OD600, 23 h; hits give low values | actives 0.21% (n = 330,000) | OD600 absorbance (no concentration beside the values) | AID 1053175;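 active = OD600 absorbance below the run mean of sample wells minus 3.6 SD, in any replicate, cut at about 0.56 in these data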;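 also: stock transfer was 300 nL into about 60 µL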
* = called active by the depositor; & = joins results of further samples. Not all compounds are listed; the hit share may differ from the screen's.

SMILES	Ecoli growth
NC(=O)C1CC2(CC(c3cccc(NC(=O)C4CCC(=O)N4)c3)=NO2)CN1C(=O)c1cc([N+](=O)[O-])cc([N+](=O)[O-])c1 (stereo not drawn)	0.65
CCN1C(=S)NC(CCc2ccccc2)C(C(=O)OC)C1C (stereo not drawn)	0.64
Cc1ccc(-c2ccc(C3C4C=CCC(C)C4C(=O)N3Cc3ccccc3)c(F)c2)cc1 (stereo not drawn)	0.74
CCCC(O)=C1C(=O)CC(c2ccccc2)CC1=NCCc1c(C)[nH]c2ccc(C)cc12 (stereo not drawn)	0.7
CC=C(C)C(=O)OC1C(O)c2c(ccc3ccc(=O)oc23)OC1(C)C (stereo not drawn)	0.68
CN1CCN(C(=O)C2=CC(c3ccc(C(F)(F)F)cc3)CC(OCCCCO)O2)CC1 (stereo not drawn)	0.63&0.7
CC(NC(=O)c1[nH]cnc1C(=O)Nc1ccc(CNC(=O)OC(C)(C)C)cc1)C(=O)OC(C)(C)C (stereo not drawn)	0.7
CCOC1OC(C(=O)Nc2ccccc2)=CC(C)C1CCCO (stereo not drawn)	0.65&0.69
O=C(C1=CC(c2ccc(C(F)(F)F)cc2)CC(OCCCCO)O1)N1CCOCC1 (stereo not drawn)	0.64&0.71
COc1ccc(C2C=CCN(S(=O)(=O)c3cccc4cccnc34)C(C)C(=O)N2Cc2ccc(F)cc2)cc1 (stereo not drawn)	0.75
COCCCN1C(=O)C(=O)C(=C(O)c2ccc(OC(C)C)cc2)C1c1cccnc1 (stereo not drawn)	0.67
CN1C(=CC(=O)c2cccnc2)Sc2ccccc21	0.67
CC(CCC=CC(=O)O)OC1OC(C)C(O)CC1O (stereo not drawn)	0.62
CC1CN=C(N(C)C)N1CCC1CCCCC1 (stereo not drawn)	0.66
O=C(C=Cc1ccccc1)c1ccccc1	0.66
CC(C)CN1CCC(=O)N(C(COc2ccccc2)Cc2ccccc2)CC1 (stereo not drawn)	0.71
COc1ccc(CN2C(=O)C3Cc4c([nH]c5ccccc45)C(C)(C)N3C2=O)cc1 (stereo not drawn)	0.65
Cc1nn(C)c(C)c1CNC(=O)C=Cc1ccccc1F	0.69
O=C1C=C(c2ccc(Cl)nc2)CC(c2ccc3c(c2)OCO3)C1 (stereo not drawn)	0.66
C#CCOCCOCCOCCNc1nc(N2CCOCC2)nc(N2CCN(C(=O)C(CCC(=O)O)n3cc(C(N)CCCCN)nn3)CC2)n1 (stereo not drawn)	0.69
CC(C)C(NS(=O)(=O)c1ccccc1)C(=O)OCn1nnc2ccccc2c1=O (stereo not drawn)	0.67
CC1CN(C(C)CO)C(=O)c2cccc(NC(=O)NC3CCCCC3)c2OC1CN(C)S(=O)(=O)c1cccs1 (stereo not drawn)	0.67
CCN1C(=O)NC(c2cccc(C(F)(F)F)c2)C(C(C)=O)C1C (stereo not drawn)	0.67
CC(C)(C)C1C=C(C(=O)Nc2ccccc2)OC(OCc2ccc(CO)cc2)C1 (stereo not drawn)	0.69&0.7
COCCN=C1OC(=O)N2C(=O)C3=C4C(CC5C(=O)N(c6ccccc6)C(=O)C5C4[C@@]12Cc1ccccc1)C1C(=O)N(c2ccccc2)C(=O)C1C3C (stereo partly drawn)	0.7
CC1CN(C(C)CO)C(=O)c2cccc(NS(=O)(=O)c3ccc(F)cc3)c2OC1CN(C)C(=O)Nc1ccc2c(c1)OCO2 (stereo not drawn)	0.65
C[C@]1(C(=O)NCCN2CCOCC2)C=CC(Cc2ccccc2)N1C(=O)c1ccccc1 (stereo partly drawn)	0.69
CC(=O)Nc1ccc(SCC(CC(C)C)N2CCN(CCc3ccccc3)CCC2=O)cc1 (stereo not drawn)	0.7
COC(=O)C1=C(C)N(Cc2ccccc2)C(=NCc2cc(OC)c(OC)c(OC)c2)NC1CCc1ccccc1 (stereo not drawn)	0.7
O=c1c2ccccc2nc(-c2ccco2)n1N=Cc1ccco1	0.68
CCOC(=O)C1C2COc3ccccc3C2N2C(=O)c3ccc(C)cc3NC(=O)[C@@]12C (stereo partly drawn)	0.66
CC(=O)OCC(=O)C1CCC2C3CCC4=CC(=O)CC[C@]4(C)C3CC[C@]12C (stereo partly drawn)	0.65
Cc1ccc(CN2CCC3C=CCc4cccc(c43)C2)cc1 (stereo not drawn)	0.66
COC(=O)c1ccc2[nH]c3cccc(C(=Cc4ccccc4)c4ccccc4)c3c2c1	0.74
COc1ccc(CNC(=O)C2CC=CC3CCN(C4CC4)C(=O)C32)cc1 (stereo not drawn)	0.71
CCOC(=O)C(C(=O)Nc1ccccc1Br)=C1NC(C)(C)Cc2ccccc21	0.68
O=C(C=Cc1ccccc1)N1CCN(CC(O)COc2ccccc2)CC1 (stereo not drawn)	0.64
CC(C)CC(=O)NC(C(=O)NC(C(=O)NC(CC(C)C)C(O)CC(=O)NC(C)C(=O)NC(CC(C)C)C(O)CC(=O)O)C(C)C)C(C)C (stereo not drawn)	0.69
CCn1c(C=Cc2ccccc2)nc2ccccc2c1=O	0.73
CCCCCC(O)c1cc2ccccc2c(=O)o1 (stereo not drawn)	0.71
CCOC(=O)CN1C(=O)N(CC)C(C)=C(C(=O)OC)C1c1ccccc1 (stereo not drawn)	0.68
CC1CC=CC2C1C(=O)N(Cc1ccccc1)C2c1ccc2ccccc2c1C=Cc1ccccc1 (stereo not drawn)	0.75
CC(C)(C)OC(=O)NCCCCC(NC(=O)c1nc[nH]c1C(=O)NC(CCCCNC(=O)OC(C)(C)C)C(=O)OC(C)(C)C)C(=O)OC(C)(C)C (stereo not drawn)	0.66
Cc1cccc(N2C(=O)N3C4c5ccccc5OCC4C(c4ccccc4)[C@]3(C)C2=O)c1 (stereo partly drawn)	0.7
CC(C)(C)C1C=C(C(N)=O)OC(OCCCCO)C1 (stereo not drawn)	0.63&0.69
CC1CN(C(C)CO)C(=O)c2cccc(NS(=O)(=O)c3ccccc3)c2OC1CN(C)C (stereo not drawn)	0.7
COc1ccc(C2CC(=O)C=C(c3cccc4c3Oc3ccccc3S4)C2)cc1 (stereo not drawn)	0.69
CC=C(NC(C)=O)c1ccccc1	0.66
Cc1cccc(C2C3C(=O)N(Cc4ccccc4)C(=O)C3[C@]3(Cc4ccc(Cl)cc4)C(=O)N(c4cccc(Br)c4)C(=O)N23)c1 (stereo partly drawn)	0.74
O=C(NC(Cc1ccc(O)cc1)C(=O)O)c1ccncc1 (stereo not drawn)	0.69
CCOC(=O)C=CC1CCc2cccc(C)c2O1 (stereo not drawn)	0.65
CC(C)(C)OC(=O)C(CCCCN)NC(=O)c1nc[nH]c1C(=O)NCCCCCN (stereo not drawn)	0.67
CC(O)C1O[C@]2(C)CCCC1O2 (stereo partly drawn)	0.67
C=C1C(=O)O[C@@]23C1CCC(C)C2CC[C@@]1(C)OC31 (stereo partly drawn)	0.68
COc1ccc(NC(=O)Nc2ccc3c(c2)C(=O)N(C(C)CO)CC(C)C(CN(C)C(=O)Nc2ccc(C(F)(F)F)cc2)O3)cc1 (stereo not drawn)	0.68
CC1(C(=O)N2CC3(CC(c4ccccc4)=NO3)CC2C(=O)NCC(N)=O)CC1 (stereo not drawn)	0.69
FC(F)(F)c1cc(CCN2CCNCC2CC2CCCCC2)cc(C(F)(F)F)c1 (stereo not drawn)	0.46*
Cc1ccccc1CN1C(Cc2ccccc2)COCCS1(=O)=O (stereo not drawn)	0.69
O=C1C=C(c2ccc(F)cc2OCc2ccccc2)CC(c2ccc3c(c2)OCO3)C1 (stereo not drawn)	0.71
CC1CN(C(C)CO)C(=O)c2cccc(NC(=O)Nc3ccc(C(F)(F)F)cc3)c2OC1CN(C)C (stereo not drawn)	0.66

Some of these compounds in order of molar mass, smallest number first:
SMILES	Ecoli growth
CC(O)C1O[C@]2(C)CCCC1O2 (stereo partly drawn)	0.67
CCOC(=O)C=CC1CCc2cccc(C)c2O1 (stereo not drawn)	0.65
C=C1C(=O)O[C@@]23C1CCC(C)C2CC[C@@]1(C)OC31 (stereo partly drawn)	0.68
CC(C)(C)C1C=C(C(N)=O)OC(OCCCCO)C1 (stereo not drawn)	0.63&0.69
O=C(NC(Cc1ccc(O)cc1)C(=O)O)c1ccncc1 (stereo not drawn)	0.69
Cc1ccccc1CN1C(Cc2ccccc2)COCCS1(=O)=O (stereo not drawn)	0.69
CC1(C(=O)N2CC3(CC(c4ccccc4)=NO3)CC2C(=O)NCC(N)=O)CC1 (stereo not drawn)	0.69
COc1ccc(C2CC(=O)C=C(c3cccc4c3Oc3ccccc3S4)C2)cc1 (stereo not drawn)	0.69
FC(F)(F)c1cc(CCN2CCNCC2CC2CCCCC2)cc(C(F)(F)F)c1 (stereo not drawn)	0.46*
Cc1cccc(N2C(=O)N3C4c5ccccc5OCC4C(c4ccccc4)[C@]3(C)C2=O)c1 (stereo partly drawn)	0.7
CC1CN(C(C)CO)C(=O)c2cccc(NS(=O)(=O)c3ccccc3)c2OC1CN(C)C (stereo not drawn)	0.7
CC1CC=CC2C1C(=O)N(Cc1ccccc1)C2c1ccc2ccccc2c1C=Cc1ccccc1 (stereo not drawn)	0.75
CC1CN(C(C)CO)C(=O)c2cccc(NC(=O)Nc3ccc(C(F)(F)F)cc3)c2OC1CN(C)C (stereo not drawn)	0.66
COc1ccc(NC(=O)Nc2ccc3c(c2)C(=O)N(C(C)CO)CC(C)C(CN(C)C(=O)Nc2ccc(C(F)(F)F)cc2)O3)cc1 (stereo not drawn)	0.68
Cc1cccc(C2C3C(=O)N(Cc4ccccc4)C(=O)C3[C@]3(Cc4ccc(Cl)cc4)C(=O)N(c4cccc(Br)c4)C(=O)N23)c1 (stereo partly drawn)	0.74
CC(C)(C)OC(=O)NCCCCC(NC(=O)c1nc[nH]c1C(=O)NC(CCCCNC(=O)OC(C)(C)C)C(=O)OC(C)(C)C)C(=O)OC(C)(C)C (stereo not drawn)	0.66

More compounds.
SMILES	Ecoli growth
CN1C(=O)C2C(C=Cc3ccccc3)N3C(=O)CN(Cc4ccccn4)C(=O)[C@@]3(Cc3ccccc3)C2C1=O (stereo partly drawn)	0.72
CCC1C(Nc2ccccc2)CC2CCN3C(=O)CCCC1C23 (stereo not drawn)	0.66
COc1ccc2c(c1)OC(c1cccc(C(F)(F)F)c1)C(OC(=O)NCCc1ccc(OC)c(OC)c1)C2=O (stereo not drawn)	0.69
CC=C(C)C(=O)Nc1cccc(C2=NOC3(C2)CC(C(N)=O)N(C(=O)C=CCC)C3)c1 (stereo not drawn)	0.67
C(=Cc1ccccc1)C=NNc1nc(N2CCCCC2)nc(N2CCCCC2)n1	0.7
COc1cccc(C2CC=C(C(=O)O)C(c3ccccc3)N2S(=O)(=O)c2ccc(C)cc2)c1 (stereo not drawn)	0.69
CNC(=O)c1[nH]cnc1C(=O)NC(Cc1ccccc1)C(=O)OCc1ccccc1 (stereo not drawn)	0.7
CC(C(=O)NCCN1C(=O)SC(=Cc2cccnc2)C1=O)N1C(=O)c2ccccc2C1=O (stereo not drawn)	0.7
CC(C)C[C@@]12C(=O)N(c3cccc(F)c3)C(=O)N1C(c1ccc(Cl)cc1)C1C(=O)N(C3CCCCC3)C(=O)C12 (stereo partly drawn)	0.72
CC(C=Cc1ccco1)=NNC(=O)CNc1ccccc1C	0.73
COc1c2ccoc2c(OCC(O)C(C)(C)OC)c2oc(=O)ccc12 (stereo not drawn)	0.68
O=C1C=C(c2ccc(C(=O)O)cc2)CC(c2ccc3c(c2)OCO3)C1 (stereo not drawn)	0.63

Arranged by the number under Ecoli growth (largest number first): three of the compounds above.
| SMILES | Ecoli growth |
| --- | --- |
| CC(C(=O)NCCN1C(=O)SC(=Cc2cccnc2)C1=O)N1C(=O)c2ccccc2C1=O (stereo not drawn) | 0.7 |
| COc1ccc2c(c1)OC(c1cccc(C(F)(F)F)c1)C(OC(=O)NCCc1ccc(OC)c(OC)c1)C2=O (stereo not drawn) | 0.69 |
| COc1c2ccoc2c(OCC(O)C(C)(C)OC)c2oc(=O)ccc12 (stereo not drawn) | 0.68 |

Continued:
SMILES	Ecoli growth
C[C@]12C(=O)N(c3ccc(Br)cc3)C(=O)N1C1c3ccccc3OCC1C2c1ccccc1 (stereo partly drawn)	0.74
CC(C)NC(=O)N(C)CC1Oc2c(NC(=O)Nc3ccccc3)cccc2C(=O)N(C(C)CO)CC1C (stereo not drawn)	0.67
CCC(C)C1CN=C(N)N1CCc1cccc2ccccc12 (stereo not drawn)	0.64
CCN1CC2C3C(=O)N(Cc4ccccc4)C(=O)C3[C@](CC)(C1=O)N2C(=O)c1ccccc1 (stereo partly drawn)	0.68
CC(C=Cc1cccnc1)=CC(=O)O	0.71
CC(C)C[C@@]12C(=O)N(c3cccc(Cl)c3)C(=O)N1C(c1ccc(Cl)cc1)C1C(=O)N(C3CCCCC3)C(=O)C12 (stereo partly drawn)	0.7
O=C1C=C(c2cc(F)ccc2F)CC(c2ccc(Cl)cc2)C1 (stereo not drawn)	0.69
COc1ccc(C(N)=NOC(=O)c2ccc(C)c([N+](=O)[O-])c2)cc1OC	0.68
CCOC1OC(C(N)=O)=CC(c2ccc(C(F)(F)F)cc2)C1CCCO (stereo not drawn)	0.66
CC(NC(=O)c1[nH]cnc1C(=O)Nc1ccccc1)C(=O)OC(C)(C)C (stereo not drawn)	0.69
CC(NC(=O)c1nc[nH]c1C(=O)N(C)Cc1ccccc1)c1ccccc1 (stereo not drawn)	0.69&0.7
COc1cccc(CN2C(=O)C3Cc4c([nH]c5ccccc45)C(C)(C)N3C2=O)c1 (stereo not drawn)	0.7&0.68
O=C1CCN(CCCc2ccccc2)CCN1C(CO)Cc1ccccc1 (stereo not drawn)	0.68
CCCCN1C(=N)N(C(CCC)CN2CCCC2CN2C(N)=NCC2Cc2ccccc2)CC1C(C)CC (stereo not drawn)	0.72
Cc1cccc(NC(=O)c2nc[nH]c2C(=O)NC(C)C(=O)OC(C)(C)C)c1 (stereo not drawn)	0.7
CCC1=C(OC(=O)N(CC)CC)N2C(=O)OC(=NCCOC)[C@]2(Cc2ccccc2)C2C1=CCC1C(=O)N(CC(=O)OC)C(=O)C12 (stereo partly drawn)	0.7
O=C(O)C1=CC(c2ccc(F)cc2)CC(OCc2ccc(CO)cc2)O1 (stereo not drawn)	0.71

From PubChem
